D2 agonist: Beta-Arrestin HTS for Positive Allosteric Modulators of the Human D2 Dopamine Receptor: Agonists; D(2) dopamine receptor (Homo sapiens), P14416; DiscoveRx PathHunter D2 beta-arrestin, luminescence, 90 min; 100% = 57 uM dopamine signal; activation, % (test concentration not listed); 0.084% of 360,000 active; AID 624465, 2012; in the data active = activation above about 40%; inconclusive = about 15% to 40%; inactive = below about 15%; also: compound concentration not given in the record; the text of the record calls up to 30% inactive
Target sequence (P14416 whole entry, looked up): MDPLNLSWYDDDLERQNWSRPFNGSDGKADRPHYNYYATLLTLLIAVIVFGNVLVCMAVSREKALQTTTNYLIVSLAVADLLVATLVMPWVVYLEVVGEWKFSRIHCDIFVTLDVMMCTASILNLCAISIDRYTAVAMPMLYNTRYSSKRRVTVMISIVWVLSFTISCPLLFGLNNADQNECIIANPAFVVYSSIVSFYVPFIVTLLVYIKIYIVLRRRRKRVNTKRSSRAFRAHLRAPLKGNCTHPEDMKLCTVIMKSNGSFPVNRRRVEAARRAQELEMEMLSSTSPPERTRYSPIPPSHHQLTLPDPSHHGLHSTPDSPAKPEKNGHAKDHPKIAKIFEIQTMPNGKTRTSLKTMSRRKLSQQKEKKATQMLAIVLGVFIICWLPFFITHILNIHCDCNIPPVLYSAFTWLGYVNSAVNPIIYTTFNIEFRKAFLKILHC
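DiscoveRx PathHunter D2 beta-arrestin cells (2,100/well) attached overnight, then compound-stimulated 90 min at 37 C in HBSS/10 mM HEPES/0.1% Tween-20 buffer; beta-galactosidase complementation read by luminescence after 1 h at ambient temperature. Dopamine 57 uM final (EC100) as control.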
TRPML1 inh: qHTS for Inhibitors of the Human Mucolipin Transient Receptor Potential 1 (TRPML1). TRPML1-inducible cells, Ca2+ dye fluorescence, FDSS; active compounds read low; inhibition of EC80 agonist-evoked calcium signal. activity change, negative = inhibition, % (no concentration beside the values). Mucolipin-1 (Homo sapiens), Q9GZU1. 0.02% of 390,000 active; in the data active means activity change below about -50%; inconclusive means about -30% to -50%; inactive means above about -30%;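 also: stimulus is agonist 54-4 at its EC80 concentration; % is scaled to controls: 0 for no effect and ±100 for the full control effect; compound concentration not given in the record; the text of the record puts the active cut at -80%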
Target sequence (Q9GZU1 whole entry, looked up): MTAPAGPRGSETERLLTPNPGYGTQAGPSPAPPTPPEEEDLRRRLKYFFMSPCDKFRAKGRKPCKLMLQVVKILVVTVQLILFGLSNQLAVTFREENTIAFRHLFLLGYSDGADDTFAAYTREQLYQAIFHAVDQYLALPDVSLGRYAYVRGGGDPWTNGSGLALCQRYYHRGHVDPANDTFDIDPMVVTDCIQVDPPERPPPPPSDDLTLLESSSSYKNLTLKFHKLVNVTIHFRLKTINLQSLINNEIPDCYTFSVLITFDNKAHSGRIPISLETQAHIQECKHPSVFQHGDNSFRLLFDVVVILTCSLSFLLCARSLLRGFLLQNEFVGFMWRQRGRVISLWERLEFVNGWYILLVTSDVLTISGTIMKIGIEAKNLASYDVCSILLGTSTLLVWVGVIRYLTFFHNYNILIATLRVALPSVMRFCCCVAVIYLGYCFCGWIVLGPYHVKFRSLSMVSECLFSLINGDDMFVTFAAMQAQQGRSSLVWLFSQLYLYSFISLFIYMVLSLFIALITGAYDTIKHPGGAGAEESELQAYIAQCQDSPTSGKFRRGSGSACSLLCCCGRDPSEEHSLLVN
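Calcium fluorescence in TRPML1-DL cells induced overnight with Tet: a 110 s read after compound pin addition, then a 110 s antagonist read after challenge with 54-4 at 4 uM final (EC80).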
D2 PAM: Beta-Arrestin HTS for Positive Allosteric Modulators of the Human D2 Dopamine Receptor: Potentiators | D(2) dopamine receptor (Homo sapiens), P14416 | DiscoveRx D2 beta-arrestin cells, luminescence, 90 min; 100% = 57 uM dopamine signal | potentiation, % (no concentration beside the values) | 0.23% of 360,000 active | AID 624464, 2012; active = potentiation of 50% or more; inconclusive = 30% to 50%; inactive = 30% or less;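 also: compound concentration not given in the record; tested on top of an EC20 dose of dopamine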
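PathHunter D2 cells, attached overnight at 37 deg C, received compound in DMSO plus dopamine at EC20 (50 nM final) for 90 min at 37 deg C. Beta-arrestin recruitment was read as luminescence after 1 h with detection reagent at ambient temperature.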
TRPML1 ag: qHTS for Agonists of the Human Mucolipin Transient Receptor Potential 1 (TRPML1) | Mucolipin-1 (Homo sapiens), Q9GZU1 | activation, % (no concentration beside the values) | TRPML1-expressing cells, Ca2+ dye fluorescence, FDSS; host cell line not named in the record; reference of the full effect not given here | 0.12% of 410,000 active; in the data active = activation above about 50%; inconclusive = about 30% to 50%; inactive = below about 30%; also: 0% is about no effect; the text of the record puts the active cut at 80%
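In this qHTS format, compounds were pin-transferred onto Ca8-dye-loaded TRPML1-DL cells induced with Tet overnight, and intracellular Ca2+ fluorescence was recorded kinetically for 110 s after a 10 s baseline. A subsequent 4uM final 54-4 (EC80) addition followed by a second 110 s read served as the antagonist phase.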
Six1-Eya2 inh: qHTS Assay for Inhibitors of the Six1/Eya2 Interaction. 0.56% of 360,000 active. AlphaScreen GST-Six1/His-Eya2 binding, biochemical; active compounds read low; control for the full effect not named in the record. Homeobox protein SIX1 (Homo sapiens) + Protein phosphatase EYA2 (Homo sapiens), …. AID 651725, 2012. activity change, % (test concentration not listed); in the data active = activity change below about -65%; inconclusive = about -30% to -65%; inactive = above about -30%; also: % is scaled to controls: 0 for no effect and ±100 for the full control effect
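AlphaScreen luminescence read after one hour at 37 °C in darkness. Pin-transferred compounds met GST-Six1 and His-Eya2 protein (5X stock 250 nM/500 nM) plus glutathione donor and Ni-chelate acceptor beads (5X, 50 ug/mL).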
PINK1 expr mod: A Quantitative High throughput Screen to Identify Chemical Modulators of PINK1 Expression. PINK1 immunofluorescence, high-content cytometry, 24 h. Potency, µM (titrated, usually from 76.6 µM), inactives show at the highest dose activation (PINK1 increase), hits mostly activators. 0.2% of 410,000 active. AID 624263, 2012; active = well fitted activation curve with a large enough effect; inconclusive = small, poorly fitted or top-dose-only effect; inactive = flat fitted curve, though single readings scatter; cell line not stated here;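 also: potency is read from the fitted curve at half-maximal effect; % of control where 0% means no effect; nearly all actives have a fitted effect of over 65% in size; a mitochondrial uncoupler was the plate control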
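PINK1 protein, normally rapidly degraded, was detected by immunofluorescence after 24 hour compound treatment of a stable cell line. Titration data (5 concentrations) came from laser-scanning cytometry, with CCCP-treated wells as controls.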
* hit, by the source's call; ? = inconclusive; . = no result given; & = joins results of further samples; [ ] = dose if it differs, or a comment.

SMILES	D2 agonist	TRPML1 inh	D2 PAM	TRPML1 ag	Six1-Eya2 inh	PINK1 expr mod
S=C(c1ccccc1)N1CCCC1	4.2	18	-3	-0.5	14	0.4%
Cc1nc2ccccc2n1CC(=O)OCC(=O)Nc1ccc2c(c1)OCCO2	-2.2	6	1	-0.2	1	-0.1%
CC(C)Oc1ccc(CNC(=O)CCCN2C(=O)C(c3ccccc3)Oc3cccnc32)cc1 (stereo unspecified)	?	-9	-2	1.8	1	4.3%
CCc1ccccc1OCC(=O)N1CCN(c2ncccn2)CC1	-1.8	-2	-6	-0.8	10	2.5%
CN(C)c1oc(-c2ccc(Cl)cc2)nc1S(=O)(=O)c1ccccc1	8.1	15	-22	1.4	5	-2.0%
O=C(CSc1nnc(CCCN2C(=O)c3cccc4cccc(c34)C2=O)n1-c1ccccc1)NCCCN1CCOCC1	0.8	11	-3	-0.2	14	2.4%
Cc1nn2c(=O)cc(CSc3nc4ccccc4[nH]3)nc2s1	-0.6	-3	-4	-0.1	3	1.5%
COCCSc1nnc(NC(=O)c2ccc([N+](=O)[O-])cc2)s1	-2.4	25	0	0.5	0	2.0%
Cc1c(C)c(C)c(CN2CCSCC2)c(C)c1C	1.9	2	-3	4.0	-11	14%
CCOc1cc(C(=O)Nc2ccc(S(=O)(=O)NC3=NCCCCC3)cc2)cc(OCC)c1OCC	2.2	6	-13	1.8	4	1.1%
CCSc1nnc2n(-c3cccc(C)c3)c(=O)c3c4c(sc3n12)CCCC4	.	6	.	2.0	.	0.4%
COc1ccc(Nc2nc(C)c(C(C)=O)s2)cc1	-3.2	.	-2	-0.7	1	-0.9%
COc1ccc(NC(=O)c2nn(C)c(=O)c3ccccc23)cc1S(=O)(=O)Nc1ccccc1Cl	-4.9	-10	-4	-0.2	-23	2.4%
CC(C)(C)n1cnc2cc(NCc3ccccc3O)ccc21	-1.5	4	-10	-0.6	-6	0.6%
COc1cccc2c(=O)c(C(=O)NCCc3ccccc3)c[nH]c12	2.7	.	2	.	3	1.0%
CCCCC(=O)N/N=C(/C)C1=C(C)C(C)(C)OC1=O	-5.4	13	-2	0.8	-2	0.4%
COC(=O)c1cc(S(=O)(=O)n2nc(C)cc2C)c(Cl)cc1Cl	-1.1	7	-22	-0.4	-23	-1.7%
COCCCn1cc(CN2CC(N3CCN(C4CCN(C)CC4)CC3)CS2(=O)=O)nn1 (stereo unspecified)	.	.	.	0.1	-10	1.2%
CN1C(=O)/C(=C/C=C2/CCCN2C)N(C)C1=S	-0.9	-2	-9	-0.3	-12	-0.3%
CC1CCC(NC(=O)CN2C(=O)c3cccnc3Oc3ccc(Cl)cc32)CC1 (stereo unspecified)	-1.7	-23	0	-0.5	2	0.7%
CSCCC(NC(=O)c1ccco1)C(=O)NCC(c1ccco1)N1CCCCC1 (stereo unspecified)	2.3	4	-2	-0.6	1	0.1%
O=S(=O)(Nc1cccc(-c2ccc3nncn3n2)c1)c1ccc(Cl)s1	1.2	-4	2	-0.1	1	1.9%
CC(OC(=O)CNC(=O)c1ccc(Br)cc1)C(=O)NC1CCCCC1C (stereo unspecified)	-5.4	-15	-11	-1.0	-6	-0.1%
COc1ccc(S(=O)(=O)NC(CC(=O)NCCc2ccccc2)c2ccco2)cc1 (stereo unspecified)	-2.2	25	-10	-0.3	-4	-1.8%[38.3 µM]
O=C(O)c1ccc(N/N=C/c2cc3c(cc2[N+](=O)[O-])OCO3)cc1	-3.4	29	-4	0.2	-21	2.4%
Cc1ccc(S(=O)(=O)N(C)Cc2nc(-c3ccc(Br)cc3)no2)cc1	-1.4	9	-3	0.4	3	2.5%
CC(C)c1ccccc1OCC(=O)Nc1ccc2[nH]ncc2c1	-0.9	18	-4	1.7	-6	-0.5%
COc1cc(C2N(c3ccc(Cl)c(Cl)c3)C(=O)C3CCCN32)cc(OC)c1OC (stereo unspecified)	-1.7	-2	-17	-0.8	1	1.9%
CC(C)NC(=O)Nc1nnc([C@@H]2C[C@H](O)[C@@H](CO)O2)s1	-5.4	.	-6	0.1	-8	1.5%
CCOc1ccc(CNC(=O)c2cnc3c(C)cccn3c2=O)cc1	.	-3	.	3.8	.	-0.6%
CS(=O)(=O)c1ccc(Cl)c(S(=O)(=O)NCc2ccccc2)c1	0.6	20	-11	0.3	0	-4.3%[38.3 µM]
O=C(Nc1ccccc1)O[C@@H]1C[C@H]2CCCC(=O)N3CC[C@@H](C1)[C@@H]23	2.0	3	4	-0.8&-0.3	2	1.2%
COc1cc(NC(=O)CCc2nnc3ccc(NCc4ccco4)nn23)cc(OC)c1	-1.3	-6	0	1.0	-5	1.5%
CCC1(CC)CNC(=O)NC1=O	-0.7	31	-6	0.2	-1	-2.1%
Cc1ccc(C)c(OCC(=O)Nc2ccc3c(c2)OCO3)c1C	-3.7	54	-10	2.3	-9	0.5%
COc1ccc(C=O)cc1COc1ccc(Cl)cc1[N+](=O)[O-]	-0.7	9	-7	1.9	-6	18%[38.3 µM]
Cc1ccc(NC(=O)c2ccccc2OCC(=O)Nc2ccccc2F)cc1S(=O)(=O)N(C)C	8.4	5	1	1.0	-10	2.2%
O=C(Cc1ccccc1)N1CCC(c2nc3ccccc3[nH]2)CC1	-0.1	40	1	-0.1	-2	-0.8%[38.3 µM]
Cc1cccc(CNC(=O)C2CCC(=O)N(CCCc3ccccc3)C2)c1 (stereo unspecified)	-0.4	-3	-9	-0.9	-3	0.0%
CCOC(=O)[C@]12CCC=C1N(CCC1=CCCCC1)C(=O)[C@H](CC(=O)N1CCN(C(=O)c3ccco3)CC1)C2	.	.	.	-0.5	1	0.4%
COc1ccc(NC(=O)CCn2nc(-c3ccc(Cl)cc3)c3ccccc3c2=O)cc1	.	2	.	1.3	.	0.7%
CN(Cc1ccccc1)C(=O)c1cccc(NC(=O)c2ccco2)c1	-5.0	-12	-5	-1.1	-8	-0.1%
CC(=O)Nc1ccc(S(=O)(=O)Nc2ccccc2C(=O)N2CCCC2)cc1	0.5	15	-3	-0.2	4	2.0%
CN1CCN(S(=O)(=O)c2cccc(C(=O)Nc3nccs3)c2)CC1	-4.8	-21	-4	-0.6	-8	-0.1%
CCSC1=C(C#N)C(=O)n2c1cc1c2CCCC1	-2.9	-3	-12	-0.9	-13	3.6%
c1ccc(Sc2ncccn2)nc1	-4.1	21	0	0.8	-1	-0.2%
COc1ccc(S(=O)(=O)c2c(Nc3ccc(C)cc3)sc(C(=O)c3ccc4c(c3)OCO4)c2N)cc1	.	-5	.	5.3	.	0.3%
COc1ccc2c(C)cc(SCC(=O)Nc3ccc(Cl)cn3)nc2c1	-1.3	31	-9	0.8	2	?
COc1ccc(/C=N/N2CCN(c3ccccc3OC)CC2)cc1Br	2.6	17	-8	1.8	-8	4.0%
c1ccc(-c2csc3ncn4cnnc4c23)cc1	-1.2	-22	-14	1.4	-1	-3.2%
O=C(Cn1c(=O)oc2cccnc21)Nc1ccccc1Oc1ccc(Cl)cc1Cl	-2.9	-9	-4	0.1	-8	3.1%
O=C1NC[C@H](CCCCN2C[C@H](Cc3ccccc3)N(CCc3ccc(O)cc3)C(=O)C2=O)N(CC2CCCCC2)C1=O	.	.	.	-0.7	-10	-0.5%
COc1ccc(CN2CCN(C(=O)c3cc(-c4cccnc4)nc4ccc(Cl)cc34)CC2)c(OC)c1OC	?	0	10	-0.2	-11	-1.0%
O=C(O/N=C1\CCCc2ccccc21)c1cccs1	-2.5	28	-13	2.1	1	0.6%
CCOc1nc(Nc2ccccc2F)nc(OCC)n1	-6.5	24	-18	0.5	6	-0.3%
S=c1[nH]nc(-c2ccccn2)n1/N=C/c1cccs1	-0.1	-19	-15	0.2	?	4.9%
CN(Cc1nccn1C)C(=O)CC1C(=O)NCCN1CC(c1ccccc1)c1ccccc1 (stereo unspecified)	-4.8	-19	0	-0.2	-7	0.4%
COc1ccccc1C(=O)Nc1ccc(S(=O)(=O)N2CCCCC2c2cccnc2)cc1 (stereo unspecified)	7.3	.	-5	.	-9	2.7%
C=CCn1c(N)cc(=O)nc1SCC(=O)Nc1ccccc1C(N)=O	-2.2	2	-4	-0.1	9	1.2%
COCc1nnc(NS(=O)(=O)c2ccccc2)s1	-4.3	-5	1	0.2	6	0.6%
COc1ccc(/C=C/C(=O)NC(=S)Nc2ccc(S(=O)(=O)Nc3nccnc3OC)cc2)cc1	-8.4	14	-10	-0.5	-25	0.8%
O=C(Cc1csc(-c2ccccc2)n1)NCc1ccco1	-4.5	2	-1	-0.3	2	1.5%
Cc1cc(C)cc(NC(=S)N(CCN2CCCCC2)Cc2ccco2)c1	-4.4	0	-18	0.7	-9	-2.2%

An excerpt of these results, with values under each structure:
Results follow in this order: D2 agonist | TRPML1 inh | D2 PAM | TRPML1 ag | Six1-Eya2 inh | PINK1 expr mod
CC(C)(C)n1cnc2cc(NCc3ccccc3O)ccc21
 : -1.5 | 4 | -10 | -0.6 | -6 | 0.6%
COc1cccc2c(=O)c(C(=O)NCCc3ccccc3)c[nH]c12
 : 2.7 | . | 2 | . | 3 | 1.0%
CCCCC(=O)N/N=C(/C)C1=C(C)C(C)(C)OC1=O
 : -5.4 | 13 | -2 | 0.8 | -2 | 0.4%
COC(=O)c1cc(S(=O)(=O)n2nc(C)cc2C)c(Cl)cc1Cl
 : -1.1 | 7 | -22 | -0.4 | -23 | -1.7%
COCCCn1cc(CN2CC(N3CCN(C4CCN(C)CC4)CC3)CS2(=O)=O)nn1 (stereo unspecified)
 : . | . | . | 0.1 | -10 | 1.2%
CN1C(=O)/C(=C/C=C2/CCCN2C)N(C)C1=S
 : -0.9 | -2 | -9 | -0.3 | -12 | -0.3%
CC1CCC(NC(=O)CN2C(=O)c3cccnc3Oc3ccc(Cl)cc32)CC1 (stereo unspecified)
 : -1.7 | -23 | 0 | -0.5 | 2 | 0.7%
CSCCC(NC(=O)c1ccco1)C(=O)NCC(c1ccco1)N1CCCCC1 (stereo unspecified)
 : 2.3 | 4 | -2 | -0.6 | 1 | 0.1%
O=S(=O)(Nc1cccc(-c2ccc3nncn3n2)c1)c1ccc(Cl)s1
 : 1.2 | -4 | 2 | -0.1 | 1 | 1.9%
CC(OC(=O)CNC(=O)c1ccc(Br)cc1)C(=O)NC1CCCCC1C (stereo unspecified)
 : -5.4 | -15 | -11 | -1.0 | -6 | -0.1%
COc1ccc(S(=O)(=O)NC(CC(=O)NCCc2ccccc2)c2ccco2)cc1 (stereo unspecified)
 : -2.2 | 25 | -10 | -0.3 | -4 | -1.8%[38.3 µM]
